Source: PubChem BioAssay
A1 apoptosis 2 – A1 inhibition read as caspase activation; MEF A1-2A-BIM cells, caspase-Glo luminescence, 3 h; percent of clofoctol response, DMSO zero; caspase activation, % (test concentration not listed); 24,000 tested, under 10 active; in the data active means caspase activation above about 5.9%;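 further: wells of about 30 µL received 50 nL stock; the first replicate is given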
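System: mouse embryonic fibroblasts co-expressing A1 and BIM (A1-2A-BIM), primed for A1 dependence; amount: 2500 cells/well; doses: 50 nL pinned compound; schedule: cells settled overnight, compound exposure 3 h at 37 °C, 5% CO2; detection: Caspase-Glo 3/7 luminescence, 1 h at room temperature; read-out: Caspase-3/7 activation, seen as rise in luminescence signal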
The depositor's hits bear a star. Some of the compounds tested, so the mix of outcomes need not match the whole.

smiles	A1 apoptosis 2
COc1ccc(S(=O)(=O)Nc2ccc3c(c2)C(=O)N([C@@H](C)CO)C[C@@H](C)[C@@H](CN(C)C(=O)Nc2ccc4c(c2)OCO4)O3)cc1	-0.6
C[C@H]1CCCCO[C@H](CN(C)C(=O)C2CCCCC2)[C@@H](C)CN([C@@H](C)CO)C(=O)c2cc(N(C)C)ccc2O1	0.2
COc1ccc(CN(C)C[C@@H]2Oc3ccc(NS(=O)(=O)c4ccc(Cl)cc4)cc3CC(=O)N([C@H](C)CO)C[C@H]2C)cc1	-0.7
C[C@@H]1CN([C@@H](C)CO)C(=O)c2cccc(NC(=O)C3CCCCC3)c2O[C@@H]1CN(C)C(=O)Nc1ccc(C(F)(F)F)cc1	-0.8
C[C@@H]1CN([C@H](C)CO)C(=O)Cc2cc(NS(=O)(=O)c3cn(C)cn3)ccc2O[C@@H]1CN(C)Cc1ccc(Oc2ccccc2)cc1	0.2
COc1ccc([C@@H](OC(=O)Nc2ccc(SC)cc2)[C@@H](CCO)OC)cc1O	1.3
C[C@@H]1CCCCO[C@@H](CN(C)C(=O)Nc2ccc3c(c2)OCO3)[C@H](C)CN([C@H](C)CO)C(=O)c2cc(N(C)C)ccc2O1	-1.2
COc1ccc(S(=O)(=O)N(C)C[C@@H]2Oc3ccc(NC(=O)CCN4CCOCC4)cc3CC(=O)N([C@@H](C)CO)C[C@@H]2C)cc1	0.5

The final 5 entries of the section above open the next one.
smiles	A1 apoptosis 2
C[C@@H]1CN([C@@H](C)CO)C(=O)c2cccc(NC(=O)C3CCCCC3)c2O[C@@H]1CN(C)C(=O)Nc1ccc(C(F)(F)F)cc1	-0.8
C[C@@H]1CN([C@H](C)CO)C(=O)Cc2cc(NS(=O)(=O)c3cn(C)cn3)ccc2O[C@@H]1CN(C)Cc1ccc(Oc2ccccc2)cc1	0.2
COc1ccc([C@@H](OC(=O)Nc2ccc(SC)cc2)[C@@H](CCO)OC)cc1O	1.3
C[C@@H]1CCCCO[C@@H](CN(C)C(=O)Nc2ccc3c(c2)OCO3)[C@H](C)CN([C@H](C)CO)C(=O)c2cc(N(C)C)ccc2O1	-1.2
COc1ccc(S(=O)(=O)N(C)C[C@@H]2Oc3ccc(NC(=O)CCN4CCOCC4)cc3CC(=O)N([C@@H](C)CO)C[C@@H]2C)cc1	0.5
C[C@@H]1CN([C@@H](C)CO)C(=O)c2cccc(NC(=O)CCCCCC(=O)Nc3ccccc3N)c2O[C@@H]1CN(C)Cc1ccncc1	0.0
CNC[C@@H]1Oc2c(NC(=O)NC3CCCCC3)cccc2C(=O)N([C@@H](C)CO)C[C@@H]1C	0.1
COc1ccc(NC(=O)Nc2cccc3c2O[C@@H](CN(C)S(=O)(=O)c2ccc(Cl)cc2)[C@@H](C)CN([C@@H](C)CO)C3=O)cc1	-1.8
C[C@@H]1CN([C@@H](C)CO)C(=O)Cc2cc(NC(=O)C3CC3)ccc2O[C@H]1CN(C)Cc1ccc(-c2ccccc2)cc1	0.2
C[C@H](CO)N1C[C@H](C)[C@H](CN(C)Cc2ccccc2)OCc2cnnn2CCCC1=O	1.3
C[C@H]1CN([C@@H](C)CO)C(=O)c2cc(N(C)C)ccc2O[C@@H]1CN(C)C(=O)Nc1ccc2c(c1)OCO2	-0.6
C[C@@H]1CN([C@@H](C)CO)C(=O)Cc2cc(NC(=O)Nc3cccc4ccccc34)ccc2O[C@@H]1CN(C)Cc1ccncc1	-0.7
C[C@H]1CCCCO[C@@H](CN(C)C(=O)Nc2ccccc2)[C@@H](C)CN([C@@H](C)CO)C(=O)c2cc(NC(=O)c3ccncc3)ccc2O1	0.8

Copied from above, 2 compounds:
smiles	A1 apoptosis 2
C[C@@H]1CN([C@@H](C)CO)C(=O)c2cccc(NC(=O)CCCCCC(=O)Nc3ccccc3N)c2O[C@@H]1CN(C)Cc1ccncc1	0.0
CNC[C@@H]1Oc2c(NC(=O)NC3CCCCC3)cccc2C(=O)N([C@@H](C)CO)C[C@@H]1C	0.1

The list goes on.
smiles	A1 apoptosis 2
COc1ccc(CN(C)C[C@H]2OCCCC[C@@H](C)Oc3ccc(NS(=O)(=O)c4ccc(C)cc4)cc3C(=O)N([C@H](C)CO)C[C@@H]2C)cc1	0.7
C[C@H]1CN([C@@H](C)CO)C(=O)c2cccc(NS(=O)(=O)c3cn(C)cn3)c2O[C@@H]1CN(C)C(=O)Nc1ccc(C(F)(F)F)cc1	-0.7
C[C@@H]1CN([C@@H](C)CO)C(=O)Cc2cc(NC(=O)Cn3cnnn3)ccc2O[C@@H]1CN(C)C(=O)Nc1ccc(F)cc1	-0.2
COc1ccc(S(=O)(=O)N(C)C[C@H]2OCCCC[C@H](C)Oc3ccc(NC(=O)CCC(F)(F)F)cc3C(=O)N([C@H](C)CO)C[C@@H]2C)cc1	0.4
C[C@@H]1CCCCO[C@H](CN(C)S(=O)(=O)c2cn(C)cn2)[C@H](C)CN([C@@H](C)CO)C(=O)c2cc(NS(=O)(=O)c3ccc(F)cc3)ccc2O1	0.5
C[C@@H]1CCCCO[C@H](CN(C)C(=O)Nc2ccc(F)cc2)[C@@H](C)CN([C@H](C)CO)C(=O)c2cc(N(C)C)ccc2O1	-0.5
COc1ccc(NC(=O)N(C)C[C@H]2OCCCC[C@H](C)Oc3ccc(NC(=O)NC4CCCCC4)cc3C(=O)N([C@@H](C)CO)C[C@@H]2C)cc1	-0.2
C[C@@H]1CN([C@H](C)CO)C(=O)CCCn2nncc2CO[C@@H]1CN(C)S(=O)(=O)c1ccc(Oc2ccccc2)cc1	1.2
O=C(O)CCCCCC(=O)N/N=C/c1cn(S(=O)(=O)c2ccccc2)c2ccccc12	0.1
Cc1ccc(S(=O)(=O)Nc2ccc3c(c2)C(=O)N([C@H](C)CO)C[C@@H](C)[C@@H](CN(C)Cc2ccc(C(F)(F)F)cc2)OCCCC[C@@H](C)O3)cc1	-0.5
C[C@@H]1CN([C@@H](C)CO)C(=O)CCCn2cc(nn2)CO[C@H]1CN(C)Cc1ccc(Cl)c(Cl)c1	-0.2
COc1ccc(S(=O)(=O)N(C)C[C@@H]2Oc3ccc(NC(=O)NC(C)C)cc3C(=O)N([C@H](C)CO)C[C@H]2C)cc1	0.2
C[C@H]1CN([C@@H](C)CO)C(=O)Cc2cc(NS(C)(=O)=O)ccc2O[C@@H]1CN(C)Cc1ccc(-c2ccccc2)cc1	-1.5
O=C1O[C@@H](c2ccccc2)[C@@H](c2ccccc2)N2[C@@H](c3ccc(OCCO)cc3)[C@]3(C(=O)Nc4ccc(C#CC5(O)CCCCCC5)cc43)[C@@H](C(=O)O)[C@H]12	1.0
Cc1ccc(S(=O)(=O)N(C)C[C@H]2OCCCC[C@H](C)Oc3ccc(NC(=O)c4ccncc4)cc3C(=O)N([C@H](C)CO)C[C@H]2C)cc1	0.5
Cc1noc(C)c1S(=O)(=O)Nc1ccc2c(c1)C(=O)N([C@@H](C)CO)C[C@@H](C)[C@@H](CN(C)S(=O)(=O)c1cn(C)cn1)OCCCC[C@@H](C)O2	0.6
C[C@@H]1CN([C@@H](C)CO)C(=O)Cc2cc(NS(C)(=O)=O)ccc2O[C@@H]1CN(C)C(=O)Nc1ccc2c(c1)OCO2	-0.5
C[C@H](CO)N1C[C@H](C)[C@@H](CN(C)Cc2ccc(Oc3ccccc3)cc2)Oc2ccc(NC(=O)Nc3ccc(C(F)(F)F)cc3)cc2C1=O	0.2
C[C@@H]1CN([C@@H](C)CO)C(=O)c2cc(NS(=O)(=O)c3cn(C)cn3)ccc2O[C@@H](C)CCCCO[C@H]1CN(C)C(=O)C1CCCCC1	-1.0
C[C@@H]1CN([C@@H](C)CO)C(=O)Cc2cc(NC(=O)Nc3ccc(C(F)(F)F)cc3)ccc2O[C@@H]1CN(C)C	0.0
C[C@H]1CCCCO[C@@H](CN(C)Cc2ccc(C(F)(F)F)cc2)[C@@H](C)CN([C@@H](C)CO)C(=O)c2cc(NS(=O)(=O)c3ccc(Cl)cc3)ccc2O1	0.8
C[C@@H]1CN([C@@H](C)CO)C(=O)c2cccc(NC(=O)NC3CCCCC3)c2O[C@@H]1CN(C)C	-2.5
C[C@@H]1CN([C@@H](C)CO)C(=O)CCCn2nncc2CO[C@H]1CN(C)C(=O)NC1CCCCC1	-0.2
COc1ccc(S(=O)(=O)Nc2ccc3c(c2)C(=O)N([C@H](C)CO)C[C@@H](C)[C@H](CN(C)S(=O)(=O)c2ccc(Cl)cc2)OCCCC[C@@H](C)O3)cc1	-1.1
C[C@H]1CN([C@@H](C)CO)C(=O)CCCn2nncc2CO[C@H]1CN(C)C(=O)c1ccc2ccn(C)c2c1	0.7
Cc1ccc(S(=O)(=O)N(C)C[C@@H]2OCCCC[C@H](C)Oc3ccc(NC(=O)C4CCCCC4)cc3C(=O)N([C@@H](C)CO)C[C@@H]2C)cc1	-1.0
C[C@@H]1CCCCO[C@@H](CN(C)C(=O)Nc2ccc(C(F)(F)F)cc2)[C@@H](C)CN([C@H](C)CO)C(=O)c2cc(N(C)C)ccc2O1	-0.6
C[C@@H]1CCCCO[C@H](CN(C)Cc2ccc3c(c2)OCO3)[C@H](C)CN([C@@H](C)CO)C(=O)c2cc(NC(=O)Cc3ccccc3)ccc2O1	0.3
Cc1noc(C)c1S(=O)(=O)Nc1ccc2c(c1)C(=O)N([C@@H](C)CO)C[C@@H](C)[C@H](CN(C)Cc1ccccc1)O2	1.3
C[C@@H]1CN([C@@H](C)CO)C(=O)c2cccc(NC(=O)Nc3cccc4ccccc34)c2O[C@H]1CN(C)S(=O)(=O)c1ccc(Cl)cc1	0.7
C[C@@H]1CN([C@H](C)CO)C(=O)c2cccc(NC(=O)Nc3ccc(C(F)(F)F)cc3)c2O[C@@H]1CN(C)S(=O)(=O)c1ccccc1	0.7
C=CCN1C(=O)[C@@]2(O[C@@H](CCn3cc(CCO)nn3)[C@H]([Si](C)(C)c3ccc(OC)cc3)[C@H]2C)c2ccccc21	-0.7
CC(C)NC(=O)Nc1ccc2c(c1)C(=O)N([C@H](C)CO)C[C@H](C)[C@@H](CN(C)Cc1ccc(-c3ccccc3)cc1)O2	-1.5
COc1ccc(/C=N/NC(=O)CCCCCCC(=O)Nc2ccccc2O)cc1O	1.0
C[C@H](CO)N1C[C@H](C)[C@H](CN(C)C(=O)CCCN(C)C)OCCCC[C@H](C)Oc2ccc(NC(=O)Nc3cccc4ccccc34)cc2C1=O	0.2
C[C@@H]1CN([C@H](C)CO)C(=O)c2cccc(NC(=O)c3nc4ccccc4s3)c2O[C@@H]1CN(C)Cc1ccc(C(=O)Nc2ccccc2N)cc1	-0.3
C[C@H](CO)N1C[C@H](C)[C@@H](CN(C)S(=O)(=O)c2ccccc2)Oc2c(NC(=O)NC3CCCCC3)cccc2C1=O	-0.4
C[C@H]1CN([C@@H](C)CO)C(=O)Cc2cc(NC(=O)Nc3ccccc3)ccc2O[C@H]1CN(C)Cc1ccc(-c2ccccc2)cc1	0.0
C[C@@H]1CCCCO[C@@H](CN(C)C(=O)c2ccccc2)[C@H](C)CN([C@@H](C)CO)C(=O)c2cc(NC(=O)CCCN(C)C)ccc2O1	0.7
C[C@@H]1CN([C@@H](C)CO)C(=O)c2cccc(NC(=O)CCCCCC(=O)Nc3ccccc3N)c2O[C@H]1CN(C)C	-0.6
NC(=O)COc1ccccc1/C=N/NC(=O)CCCCCC(=O)NO	0.7
COc1ccc(NC(=O)N(C)C[C@@H]2Oc3ccc(NS(=O)(=O)c4cccs4)cc3C(=O)N([C@H](C)CO)C[C@H]2C)cc1	0.4
COc1ccc(CN(C)C[C@@H]2Oc3ccc(NC(=O)C4CC4)cc3CC(=O)N([C@H](C)CO)C[C@H]2C)cc1	-0.1
COCCCNC(=O)[C@]1(CCS(=O)(=O)c2ccccc2)N=C(c2ccc(OCCCO)cc2)O[C@@H]1c1ccccc1	1.1
C[C@H](CO)N1C[C@H](C)[C@H](CN(C)CC2CC2)Oc2ccc(NS(=O)(=O)c3ccccc3)cc2CC1=O	-2.3
C[C@@H]1CN([C@H](C)CO)C(=O)c2cc(NS(=O)(=O)c3ccc(Cl)cc3)ccc2O[C@@H](C)CCCCO[C@H]1CN(C)C(=O)Nc1ccc2c(c1)OCO2	-1.0
COc1ccc(S(=O)(=O)N(C)C[C@@H]2Oc3ncc(C#Cc4ccccc4)cc3C(=O)N([C@H](C)CO)C[C@@H]2C)cc1	-0.7
C[C@@H]1CN([C@@H](C)CO)C(=O)c2cccc(N(C)C)c2O[C@H]1CN(C)Cc1ccc(C(=O)O)cc1	0.8
C[C@@H]1CN([C@@H](C)CO)C(=O)Cc2cc(NC(=O)CCCCCC(=O)Nc3ccccc3N)ccc2O[C@H]1CN(C)Cc1ccc2c(c1)OCO2	-1.6
COc1ccc(NC(=O)Nc2ccc3c(c2)C(=O)N([C@H](C)CO)C[C@@H](C)[C@@H](CN(C)C(=O)Nc2ccccc2)O3)cc1	-0.6
C[C@@H]1CN([C@@H](C)CO)C(=O)c2cc(NS(=O)(=O)c3cccs3)ccc2O[C@H]1CN(C)C(=O)Nc1ccc2c(c1)OCO2	-1.5
COC(=O)c1cn(CC(=O)N2CCN(c3ccccc3)CC2)nn1	-0.3
C[C@H]1CN([C@@H](C)CO)C(=O)Cc2cc(NC(=O)Nc3ccc4c(c3)OCO4)ccc2O[C@H]1CN(C)Cc1ccc2c(c1)OCO2	0.5
COc1ccc(S(=O)(=O)N(C)C[C@@H]2Oc3c(NC(=O)c4ccncc4)cccc3C(=O)N([C@@H](C)CO)C[C@H]2C)cc1	0.4
COc1ccc(CN(C)C[C@H]2Oc3ccc(NC(=O)Cc4cn(C)c5ccccc45)cc3CC(=O)N([C@@H](C)CO)C[C@@H]2C)cc1	-0.4
